VCAM-1 imaging – inhibitors of TNFa-induced VCAM-1 surface display, imaging, high-content imaging, pooled HUVEC, TNFa stimulus (AID 456) | hit rate 0.2% among 10,000 | inhibition, % at 5 µM; hits with a dose series show IC50 in µM | HUVEC TNFa-induced VCAM-1 surface expression, immunofluorescence imaging; numbers were filed only for top-ranked candidate wells;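 active means top tenth filtered wells with inhibition above zero that passed visual or statistical confirmation; inactive means the rest, including hits rejected on review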;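 further: 0% = stimulated vehicle wells and 100% = unstimulated cells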
FPRL1 binder – human FPRL1 ligand, with FPR counter-screen; FPRL1-expressing cells, fluorescent ligand binding inhibition, flow cytometry; hit rate 0.3% among 24,000; inhibition, %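 (tested at 6.7 µM)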; AID 441;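 further: 0% = buffer alone and 100% = receptor blocker peptide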
Target sequence (P25090 whole entry, looked up): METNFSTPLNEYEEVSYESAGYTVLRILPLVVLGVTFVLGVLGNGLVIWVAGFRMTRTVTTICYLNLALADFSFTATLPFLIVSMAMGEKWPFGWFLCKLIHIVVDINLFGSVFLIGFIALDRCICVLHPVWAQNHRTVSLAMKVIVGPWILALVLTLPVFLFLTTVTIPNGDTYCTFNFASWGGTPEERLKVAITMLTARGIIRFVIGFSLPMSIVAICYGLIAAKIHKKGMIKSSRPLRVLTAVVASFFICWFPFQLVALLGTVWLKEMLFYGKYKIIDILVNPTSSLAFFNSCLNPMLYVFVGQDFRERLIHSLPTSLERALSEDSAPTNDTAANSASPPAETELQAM
VCAM-1 augmentation – boosters of cytokine-driven VCAM-1 levels – imaging, high-content imaging, pooled HUVEC, TNFa stimulus (AID 457). Pooled HUVEC, TNFa-induced VCAM-1 immunofluorescence imaging; hits of this screen are not shown here. calls only. hit rate 0.2% among 10,000;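 active means a top-ranked rise in VCAM-1 staining upheld on image or statistical review; inactive means the rest, including candidates rejected on review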;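 further: compounds tested at 5 µM in the well; cells exposed to compound for 24 hours before fixing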
VCAM-1 down – inhibitors of TNFa-induced VCAM-1 surface display, cell-based, plate reader, pooled HUVEC, TNFa stimulus (AID 454) | HUVEC TNFa-induced VCAM-1 surface immunofluorescence, plate reader; numbers were filed only for top-ranked candidate wells | inhibition, % at 5 µM | hit rate 0.2% among 10,000;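 active means compound among top-ranked inhibitors of TNF-induced VCAM-1 adhesion protein staining, with the hit upheld by image or statistical review; inactive means the rest, including hits rejected on review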;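 further: 0% = TNFa with vehicle and 100% = cells without TNFa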
FPR ligand – human FPR ligand, with FPRL1 counter-screen | P21462 | FPR-expressing cells, fluorescent ligand binding, flow cytometry | inhibition, %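 (tested at 6.7 µM)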 | hit rate 0.74% among 24,000 | AID 440;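 further: 0% = buffer wells and 100% = receptor blocker peptide wells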
Target sequence (P21462 whole entry, looked up): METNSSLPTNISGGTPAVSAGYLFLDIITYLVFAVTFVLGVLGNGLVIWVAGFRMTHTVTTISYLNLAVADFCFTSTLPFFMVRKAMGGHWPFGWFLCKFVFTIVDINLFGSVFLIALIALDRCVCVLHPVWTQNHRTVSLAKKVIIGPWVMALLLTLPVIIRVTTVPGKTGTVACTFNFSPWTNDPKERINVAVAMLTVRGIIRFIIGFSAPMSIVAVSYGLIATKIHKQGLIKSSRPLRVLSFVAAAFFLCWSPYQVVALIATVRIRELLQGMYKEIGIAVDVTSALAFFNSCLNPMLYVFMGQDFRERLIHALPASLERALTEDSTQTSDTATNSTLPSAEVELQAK
Active calls of the source: *; i = inactive; x = no result given.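 How the source made its calls, unless noted: active means mean above 30%; inconclusive means self-fluorescent; inactive means the rest.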

SMILES | VCAM-1 imaging | FPRL1 binder | VCAM-1 augmentation | VCAM-1 down | FPR ligand
O=C(c1ccccc1)c1ccc2nc(N3CCN(C(=O)c4ccco4)CC3)c3nncn3c2c1 | x | -6.4 | x | x | 7.0
COc1ccc(S(=O)(=O)Nc2ccc3c(c2)OCO3)cc1Cl | i | -6.0 | i | i | 1.6
Cc1ccc(-c2nc3cccnc3s2)cc1NC(=O)c1ccco1 | x | 0.4 | x | x | 7.1
CN(Cc1ccccc1)S(=O)(=O)c1ccc(C(=O)Nc2nnc(C3CC3)o2)cc1 | x | -3.3 | x | x | -1.7
COc1ccc(Cn2nnnc2C(c2cccnc2)N2CCN(c3ccc(O)cc3)CC2)cc1 (centres undefined) | i | -1.0 | i | i | 6.1
O=C(C1CCCN(S(=O)(=O)c2cccnc2)C1)N1CCN(c2ccccn2)CC1 (centres undefined) | i | -0.6 | i | i | -6.1
CCOc1cccc(C(=O)N(Cc2ccco2)C2CCS(=O)(=O)C2)c1 (centres undefined) | i | -4.7 | i | i | 4.1
Cc1cc(C)c2nc(N)sc2c1 | i | 4.7 | i | i | -1.1
CCC(C)NC(=O)C1CCC(=O)N(c2ccc3c(c2)OCO3)C1c1ccc(OC)cc1 (centres undefined) | x | 1.6 | x | x | 14.9
CN(CCNC(=O)c1cn(C)c2ccc(S(=O)(=O)N(C)C)cc2c1=O)CCc1ccccc1 | x | 1.8 | x | x | -4.9
CCC(NS(=O)(=O)c1ccc(C)cc1)C(=O)O (centres undefined) | x | 11.8 | x | x | 0.6
CCCCn1cnc2c(cnn2-c2ccc(Cl)cc2)c1=O | i | -2.7 | i | i | -2.9
C=CCn1c(=O)n(CCOC)c(=O)c2sc3ccccc3c21 | i | -1.8 | i | i | 0.0
Cn1c2c(c(=O)n(C)c1=O)CN(Cc1ccc(F)cc1)CN2 | x | -14.6 | x | x | -17.5
COc1ccc(CNC(=O)c2noc3c2CCCC3)cc1 | x | 3.4 | x | x | -1.5
Cc1nn(C)c(C)c1S(=O)(=O)N1CCC(C(=O)NC2CCCc3ccccc32)CC1 (centres undefined) | x | 6.8 | x | x | 17.0
COC(=O)C1C(=O)C2=C(CC1C)NC(=O)CC2c1ccccc1 (centres undefined) | i | 0.9 | i | i | -3.4
Cc1ccc(CCN2CC(C(=O)NCCCN3CCCCCC3)CC2=O)cc1 (centres undefined) | x | 3.8 | x | x | -6.1
Cc1oc2cc(O)ccc2c(=O)c1N1C(=O)c2ccccc2C1=O | x | 0.4 | x | x | -9.8
c1ccc(Cn2nnnc2C(c2cccs2)N2CCSCC2)cc1 (centres undefined) | i | 3.4 | i | i | -10.2

Random excerpt: four records from the list, in no set order.
SMILES | VCAM-1 imaging | FPRL1 binder | VCAM-1 augmentation | VCAM-1 down | FPR ligand
Cc1cc(C)c2nc(N)sc2c1 | i | 4.7 | i | i | -1.1
COc1ccc(CNC(=O)c2noc3c2CCCC3)cc1 | x | 3.4 | x | x | -1.5
Cn1c2c(c(=O)n(C)c1=O)CN(Cc1ccc(F)cc1)CN2 | x | -14.6 | x | x | -17.5
CN(CCNC(=O)c1cn(C)c2ccc(S(=O)(=O)N(C)C)cc2c1=O)CCc1ccccc1 | x | 1.8 | x | x | -4.9

New compounds follow
SMILES | VCAM-1 imaging | FPRL1 binder | VCAM-1 augmentation | VCAM-1 down | FPR ligand
c1ccc2c(c1)nc(N1CCN(C3CCCCC3)CC1)c1nnnn12 | x | -0.6 | x | x | -5.9
Cc1c(C(=O)N2CC(C)OC(C)C2)sc2nc(-c3ccccc3)cn12 (centres undefined) | x | -6.4 | x | x | 0.8
CCc1ccccc1N(CC)C(=O)c1cn(C)c(=O)c2cc(OC)c(OC)cc12 | x | 6.8 | x | x | -2.5
Cn1c(C(=O)NCCN2CCCCCC2)cc2c(=O)n(C)c3ccccc3c21 | x | 0.8 | x | x | 1.6
Cc1c(C(=O)NCC2CCCO2)oc2ccc(S(=O)(=O)N3CCCCC3)cc12 (centres undefined) | x | 1.9 | x | x | 2.5
CC(C)CCNC(=O)C1CCN(C(=O)N(C)C)CC1 | i | -3.2 | i | i | -1.1
Cc1ccc(-c2noc(CCC(=O)NC3CCN(Cc4ccccc4)CC3)n2)cc1 | x | -0.9 | x | x | -2.8
C/C=C(/C(=C/C)c1ccc(O)cc1)c1ccc(O)cc1 | i | -7.6 | i | i | -3.8
Cc1cnn(-c2nc(-c3cccs3)cc(C(F)(F)F)n2)c1 | x | -1.8 | x | x | 4.6
CCOC(=O)CN1C(=O)C(O)(CC(=O)c2ccccn2)c2ccccc21 (centres undefined) | x | -7.3 | x | x | -12.7
CCOC(=O)C1CCCN(CC(=O)NC2CC2)C1 (centres undefined) | i | -0.5 | i | i | -6.4
Cc1onc(-c2ccccc2)c1C(=O)NCCN1CCOCC1 | i | 2.8 | i | i | -3.4
CCOc1ccccc1C(=O)NCCCN1CCN(CCCNC(=O)c2ccccc2OCC)CC1 | x | 4.7 | x | x | -7.6
COc1ccc(-n2c(Cc3cccn3C)nnc2SCC(=O)NCc2ccccc2Cl)cc1 | x | 1.3 | x | x | 3.3
O=C(c1ccco1)N1CCN(C(=O)C2CCN(S(=O)(=O)c3cnc[nH]3)CC2)CC1 | x | -3.1 | x | x | 2.3
Nc1nc2sc3c(c2c(=O)s1)CCCC3 | i | -1.6 | i | i | 4.1
COc1ccc(CN2C(=O)CCC2(C)C(=O)NCc2cccnc2)c(OC)c1 (centres undefined) | x | -1.3 | x | x | 4.2
Cc1nc(NCc2ccccn2)c2ccccc2n1 | i | -17.6 | i | i | -12.4
CC1(C)NC(=O)N(CC(O)COc2cccc(F)c2)C1=O (centres undefined) | i | 13.5 | i | i | 8.8
Oc1c(CN2CCCCC2)cc(COCc2ccccc2)c2cccnc12 | x | -4.2 | x | x | -5.0
CCc1c(C(=O)Nc2ccc(OC)c(Cl)c2)[nH]c(C)c1C(C)=O | x | 2.5 | x | x | 7.6
Cc1cccc(C)c1NS(=O)(=O)c1c(C)[nH]c(=O)[nH]c1=O | x | 2.2 | x | x | 1.6
COCCCNC(=O)CS(=O)Cc1nc(-c2cccc(OC)c2)oc1C (centres undefined) | x | 0.9 | x | x | -5.7
O=C(CCCC(=O)N1CCN(c2ccccc2F)CC1)N1CCN(c2ccccc2F)CC1 | x | -8.4 | x | x | 7.3
COc1ccc(N2C(=O)CCC(C(=O)N(C)C3CCCCC3)C2c2ccc(OC)c(OC)c2)cc1 (centres undefined) | x | -4.6 | x | x | 3.8
COc1ccc(C2/C(=C(/O)c3ccccc3)C(=O)C(=O)N2C)cc1 (centres undefined) | i | 5.7 | i | i | 11.0
COc1ccc2c(c1)C(=O)N(c1ccccc1OC)C(=O)C2 | i | -2.2 | i | i | -3.4
COc1cc(C2=NOC(C(=O)Nc3ccc(C(C)=O)cc3)C2)cc(OC)c1OC (centres undefined) | x | 4.1 | x | x | -0.9
Cc1ccc(NC(=O)CN(C)S(=O)(=O)c2cccs2)cc1F | x | -9.4 | x | x | -1.3
Cc1ccc2oc(=O)c3cnn(CC(=O)Nc4ccccc4N4CCN(C)CC4)c3c2c1 | x | 5.9 | x | x | -6.9
Cc1ccc(Cn2c(=O)n(Cc3ccco3)c(=O)c3ccccc32)cc1 | x | -12.1 | x | x | -0.4
CC(C)Oc1cc2oc(=O)c3c(c2cc1Cl)CCC3 | i | -1.0 | i | i | 0.3
CCc1nc(N)c(C#N)c(-c2ccc(OC)c(OC)c2)c1C | i | -4.2 | i | i | 0.8
O=C(NCCc1ccccc1)C1CC(=O)N(C2CCCCCC2)C1 (centres undefined) | x | -3.2 | x | x | -8.9
Cc1nc2nc(-c3cccnc3)nn2c(C)c1Cl | i | -4.4 | i | i | -3.4
COc1ccc(C2C(C(=O)OC3CCCCC3)=C(C)Nc3nnnn32)c(OC)c1OC (centres undefined) | x | 8.1 | x | x | -1.0
c1ccc(-c2nc3c4ccccc4nc(N4CCN(c5ccccn5)CC4)n3n2)cc1 | x | -0.8 | x | x | -7.9
Cc1ccc(-n2nc3c(c2NC(=O)c2ccc(OC(C)C)cc2)CS(=O)C3)cc1 (centres undefined) | x | -0.1 | x | x | -3.1
Cc1ccc(CS(=O)(=O)CCC(=O)NCc2ccccn2)cc1 | x | -1.7 | x | x | 2.9
COc1ccc(N2CCN(C(c3cccc(OC)c3OC)c3nnnn3C3CCCC3)CC2)cc1 (centres undefined) | i | 2.7 | i | i | -2.1
CC1=C(C(=O)OCCOC(C)C)C(c2cc3c(cc2Br)OCO3)C2=C(CCCC2=O)N1 (centres undefined) | i | -3.6 | i | i | 3.2
COc1ccccc1C1CC(c2ccc(Cl)cc2Cl)Nc2nc(N)nn21 (centres undefined) | x | -7.5 | x | x | -2.5
O=C(CC1N=C2c3ccccc3N=C(SCc3ccc(F)cc3)N2C1=O)NCc1ccco1 (centres undefined) | x | 6.4 | x | x | 1.2
CC(C)(C)OC(=O)N1CCC(C(=O)O)CC1 | x | 18.2 | x | x | 8.6
O=c1oc2ccccc2n1CCn1c2ccccc2c2nc3ccccc3nc21 | i | 6.9 | i | i | -0.3
COc1ccc(-c2nnc3ccc(SCC(N)=O)nn23)cc1OC | x | -3.8 | x | x | -1.3
CC(C)CCNC(=O)NC(=O)CSc1nnc(-c2ccccc2Br)o1 | i | -2.4 | i | i | 5.1
O=C(Nc1ccc(Nc2ccccc2)cc1)c1ccco1 | x | 0.3 | x | x | 1.3
Cc1nc(SCC(=O)CC(=O)OC(C)C)c(C#N)c(C)c1C | i | -2.8 | i | i | 8.0
Cc1ccc2[nH]c3c(=O)n(CCCN4CCN(C)CC4)cnc3c2c1 | i | 0.3 | i | i | 7.4
CC(=O)Nc1ccc(S(=O)(=O)N(C2=NCC(C)S2)c2ccccc2)cc1 (centres undefined) | i | -1.5 | i | i | -8.5
CCOc1ccc(NC(=O)CN2C(=O)C3CCCN3C2=O)cc1 (centres undefined) | i | 4.4 | i | i | 6.8
COc1cc2c(cc1O)C(SC)=NC(C)(C)C2 | x | 17.5 | x | x | -9.8
CCOC(=O)N1CCN(C(=O)c2ccc3c(=O)n(Cc4ccccc4)c(=S)[nH]c3c2)CC1 | x | 1.3 | x | x | 3.4
CCc1c(C)nc2c(C#N)c(C)[nH]n2c1=O | x | 26.8 | x | x | 49.6*
CCOc1ccc(NC(=O)CN2CCN(CC(=O)Nc3ccc4c(c3)OCCO4)CC2)cc1 | x | 5.4 | x | x | -8.5
Cc1nccc2[nH]c(=O)c(C(=O)NCCCN(C)C3CCCCC3)cc12 | x | -2.3 | x | x | -6.8
CCS(=O)(=O)N1CCC(C(=O)N2CCN(c3ccccc3)CC2)CC1 | x | -0.6 | x | x | 1.7
CC(C)CCn1c(SCC#N)nc2c(sc3ccccc32)c1=O | i | 10.5 | i | i | 1.6
CCOC(=O)N1CCC(=C(C#N)C(=O)Nc2cc(OC)ccc2OC)CC1 | x | 5.9 | x | x | 4.2

Remaining list, next part
SMILES | VCAM-1 imaging | FPRL1 binder | VCAM-1 augmentation | VCAM-1 down | FPR ligand
O=C(NC1CCCCC1)C1CCN(S(=O)(=O)c2cccc3cccnc23)CC1 | x | 2.2 | x | x | -0.8
Cc1ccc(NC2c3ncccc3C(=O)N2Cc2ccc(F)cc2)cc1 (centres undefined) | x | 27.1 | x | x | 0.0
CCCC(NC(=O)c1ccccc1)c1nc2ccccc2n1Cc1ccc(C(=O)OC)o1 (centres undefined) | i | 5.7 | i | i | 24.2
CC(=O)c1cccc(NC(=O)CN(c2ccc(C)cc2)S(=O)(=O)c2cccc3nonc23)c1 | x | 8.2 | x | x | -5.9
COC(=O)COc1nc(C)c(Br)c(OC)n1 | i | 5.3 | i | i | 2.2
O=C(O)CCN(CCC(=O)O)S(=O)(=O)c1ccccc1 | x | -4.4 | x | x | 0.3
O=C(Cn1cc2c(n1)CCCCC2)N1CCc2ccccc2C1 | i | 0.2 | i | i | 1.6
CCOC(=O)CN1CC23C=CC(O2)C(C(=O)N2CCN(c4ccc(F)cc4)CC2)C3C1=O (centres undefined) | x | 1.4 | x | x | -2.8
CCOC(=O)c1c(C)oc2ccc(NS(=O)(=O)c3ccc4c5c(cccc35)C(=O)N4)cc12 | i | -4.3 | i | i | -4.6
CCCOC(=O)NC(CC)COC(=O)Nc1cc(C)ccc1C (centres undefined) | x | -8.1 | x | x | -5.6
CC1CCCCN1C(=O)Cn1c(=O)n(CCC(=O)NCc2ccco2)c(=O)c2sccc21 (centres undefined) | x | 4.6 | x | x | -3.3
CCCNC(=O)CS(=O)(=O)Cc1nc(-c2ccccc2C)oc1C | x | 0.2 | x | x | 4.1
CC(C)CN(CC(C)C)C(=O)C12CCC(C)(C(=O)C1)C2(C)C (centres undefined) | i | -1.4 | i | i | -5.2
CCOC(=O)N1CCN(C(=O)c2cc(S(=O)(=O)N3CCCC3)cn2C)CC1 | x | 1.1 | x | x | -1.9
CC(C)OC(=O)CSc1nnc(-c2ccco2)n1N | i | 0.7 | i | i | 0.1

This is a subset, so the mix of outcomes need not match the whole.
